ClpP mod – qHTS Assay for Activators of ClpP | purified B. subtilis ClpP, FRET peptide cleavage, 20 min | Potency, µM (titrated, usually from 57.5 µM), for inactives: at the highest dose activity change, negative = active | hit rate 1.9% among 340,000 | AID 651965, 2013; active = well fitted falling curve with a large enough effect; inconclusive = small, poorly fitted or top-dose-only effect; inactive = no such curve, though single readings can be large or run the other way; also: potency is read from the fitted curve at half-maximal effect; the source files actives as falling curves though it sought activators and does not explain the sign; nearly all actives have a fitted effect of over 65% in size; many hits overshoot -100%
Target sequence (P80244 whole entry, looked up): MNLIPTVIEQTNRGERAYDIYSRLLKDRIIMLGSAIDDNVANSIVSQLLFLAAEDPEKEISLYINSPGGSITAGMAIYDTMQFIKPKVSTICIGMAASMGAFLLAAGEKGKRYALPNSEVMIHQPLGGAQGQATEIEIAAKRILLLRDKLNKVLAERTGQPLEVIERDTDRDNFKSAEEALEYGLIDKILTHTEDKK
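FRET quenching reversal measured ClpP activation: 10 microg/mL B. subtilis ClpP at pH 8 with the FRET-FV decapeptide, read at 430 nm after 320 nm excitation. The 20-min minus 0-min signal was scaled between DMSO/no-enzyme wells and ADEP (5.8 microM final).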
gsp antag – antagonists of gsp mutant (McCune-Albright syndrome); gsp-mutant cells, cAMP HTRF, 30 min; control for the full effect not named in the record; Potency, µM (top dose mostly 76.9 µM), for inactives: at the highest dose activity change, negative = inhibition, hits mostly inhibitors; hit rate 0.4% among 340,000; active = falling curve of any shape with a large fitted effect; inconclusive = falling curve, mostly with a smaller effect; inactive = flat or rising curve; cell line not stated here;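 also: intracellular cAMP measured with PDE inhibitor Ro 20-1724 present during compound exposure; potency is read from the fitted curve at half-maximal effect; % is scaled to controls: 0 for no effect and ±100 for the full control effect; nearly all actives have a fitted effect of over 65% in size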
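Measurement of cellular cAMP by homogeneous time-resolved fluorescence following a 30 min compound exposure at 37C. The PDE inhibitor […] was present throughout; the assay buffer was DPBS with 0.05% BSA and 0.005% Tween 20.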
Menin-MLL FL inh – displaces fluorescein MLL peptide from human menin | Fluorescence polarization, fluorescein-MLL peptide displacement from menin | FP activity change, % at 61.4 µM | 290,000 tested, under 10 active | AID 1766; inconclusive = falling polarisation curve, or a change in total fluorescence; inactive = total fluorescence flat and polarisation flat or rising; no compound was filed as active; the % refers to the polarisation; negative = inhibition;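 also: % of control where 0% means no effect; inhibitors lower the polarisation; unlabelled MLL peptide was the positive control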
Sfp inh – inhibitors of Bacillus subtilis Sfp phosphopantetheinyl transferase; Q9F4F7; Biochemical Sfp PPTase activity, qHTS; Potency, µM, without a hit: max response, negative = inhibition, hits mostly inhibitors; hit rate 3.5% among 310,000; AID 1490; active = well fitted inhibition curve with a large enough effect; inconclusive = small, poorly fitted or top-dose-only effect, or another doubt; inactive = no such curve, though single readings can be large or run the other way;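 also: the enzyme is Sfp with the accession as filed and its product quenches rhodamine fluorescence; potency is read from the fitted curve at half-maximal effect; 0% = enzyme reaction without inhibitor and -100% = no enzyme wells; top concentration of the series not given in the record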
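Sfp 15 nM + cpd, 15 min RT; start w/ rhodamine-CoA 5 uM, BHQ-2-YbbR 12.5 uM (final); 50 mM Hepes pH 7.6, 10 mM MgCl2, 0.01% NP-40, 0.01% BSA; read 525/598 nm at 0 and 30 min.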
gsp agonist – activates gsp, the McCune-Albright syndrome mutation; Potency, µM (highest dose often 76.9 µM), inactives show top-dose activation (cAMP increase), usual class: activators; hit rate 0.13% among 340,000; gsp mutant cells, cAMP HTRF, 30 min; control for the full effect not named in the record; active = well fitted activation curve with a large enough effect; inconclusive = small, poorly fitted or top-dose-only effect, or another doubt; inactive = no such curve, though single readings can be large or run the other way; cell line not stated here;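 also: phosphodiesterase inhibitor Ro 20-1724 added with compounds to block cAMP breakdown; potency is read from the fitted curve at half-maximal effect; nearly all actives have a fitted effect of over 60% in size; about a fifth of the inactives were tested at one dose only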
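Cells in DMEM/10% FBS with G418 were pretreated with compounds in DMSO plus […] (300 uM stock) for 30 min at 37C. cAMP was measured by HTRF (cAMP-d2 plus anti-cAMP antibody-K) after 30 min at room temperature.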
D2 potentiator – human D2 receptor positive allosteric modulation; P14416; DiscoveRx D2 beta-arrestin cells, luminescence, 90 min; 100% = 57 uM dopamine signal; potentiation, % (test concentration not listed); hit rate 0.23% among 360,000; AID 624464; active = potentiation of 50% or more; inconclusive = 30% to 50%; inactive = 30% or less;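 also: compound concentration not given in the record; tested on top of an EC20 dose of dopamine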
Target sequence (P14416 whole entry, looked up): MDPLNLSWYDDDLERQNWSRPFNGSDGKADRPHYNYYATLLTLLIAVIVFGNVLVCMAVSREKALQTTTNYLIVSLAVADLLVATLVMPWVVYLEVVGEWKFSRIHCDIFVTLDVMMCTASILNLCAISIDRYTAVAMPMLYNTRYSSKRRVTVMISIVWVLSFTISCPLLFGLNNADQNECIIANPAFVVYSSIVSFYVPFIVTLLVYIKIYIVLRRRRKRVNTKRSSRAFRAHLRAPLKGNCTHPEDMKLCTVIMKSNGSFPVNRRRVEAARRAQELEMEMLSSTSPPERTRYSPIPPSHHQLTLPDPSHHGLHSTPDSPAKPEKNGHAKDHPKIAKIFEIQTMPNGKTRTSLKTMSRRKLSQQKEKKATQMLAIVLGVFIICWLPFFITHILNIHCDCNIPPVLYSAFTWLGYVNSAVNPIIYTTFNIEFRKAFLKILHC
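PathHunter D2 cells, attached overnight at 37 deg C, received compound in DMSO plus dopamine at EC20 (50 nM final) for 90 min at 37 deg C. Beta-arrestin recruitment was read as luminescence after 1 h with detection reagent at ambient temperature.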
TRPV1 PAM – human TRPV1 potentiation. TRPV1-expressing cells, Fluo-8 calcium influx, capsaicin EC20 potentiation; host cell line not named in the record; control for the full effect not named in the record. potentiation, % at 8.33 µM. Q8NER1. hit rate 0.02% among 320,000; active means potentiation above 80%; inconclusive means 30% to 80%; inactive means below 30%; also: 0% is about no effect
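Cells expressing TRPV1 were dye-loaded with Fluo-8 and read kinetically: 10 s baseline, 3 min after compound (agonist portion), then 2 min after EC20 capsaicin (allosteric enhancer portion). Calcium-bound dye fluorescence at 480/520 nm.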
Numbers without * were called inactive; u = inconclusive; x = no result given; & = joins results of further samples; [ ] = another dose, or the depositor's remark.

SMILES	ClpP mod	gsp antag	Menin-MLL FL inh	Sfp inh	gsp agonist	D2 potentiator	TRPV1 PAM
COc1ccc2c(c1)/C(=N/N1C(=O)c3ccccc3C1=O)C(=O)N2	x	x	-0.4	-7%	x	x	-25
CC(=O)Nc1ccc2c(c1)C(=Nc1cccc(C)c1)c1ccccc1-2	x	-14%	x	x	-30%	-9	x
CCNC(=O)N1CCN(S(=O)(=O)c2ccc3c(c2)OCCCO3)CC1	0.0%	2%	x	x	5%	16	4
NC(=O)C(=O)N/N=C/c1c2ccccc2cc2ccccc12	-2.8%	-1%	x	-8%	-9%	-12	16
CCCc1nc2ccccc2c(=O)n1/N=C/c1ccccc1O	4.8%	-25%	5.0	13%	-21%	-12	-20
Cc1csc2ncnc(N3CCN(C(=S)Nc4ccc(F)cc4F)CC3)c12	1.4%	u	-1.6	0%	-6%[15.4 µM]	-12	-7
O=C(c1ccccc1)c1ccc(C(=O)N2CCCC(C(F)(F)F)C2)cc1 (stereo not given)	-6.8%	-16%	x	x	-4%	-14	-1
COc1ccc(OCCCC(=O)N2CCN(S(=O)(=O)c3cccc(F)c3)CC2)cc1	x	-5%	x	x	-9%[15.4 µM]	-6	-19
O=C(CCS(=O)(=O)c1ccc(Br)s1)NCc1ccccc1	-2.3%	-1%	1.0	15%	22%	15	-11
O=C(COc1ccc(Cl)cc1)Nc1ncc([N+](=O)[O-])s1	x	35µM*	1.9	-3%	3%[15.4 µM]	-6	-7
NC(=O)c1ccc(OCC(F)(F)F)nc1	-0.5%	14%	-1.1	15%	-27%	-15	2
Cc1cc(C(F)F)n2nc(C(=O)Nc3sc4c(c3C(N)=O)CCC4)nc2n1	1.7%	-5%	5.7	-6%	u	10	-15
CC(NC(=O)Cc1ccc(Br)cc1)c1ccccc1 (stereo not given)	-2.5%	-10%	-1.3	16%	-25%	-4	-4
CCOC(=O)N1CCN(Cc2nc3c(c(=O)n(C)c(=O)n3C)n2CCC(C)C)CC1	-3.9%	-7%	2.0	-6%	39%	-4	-29
COc1cccc(C2CC(C(F)(F)F)n3ncc(C(=O)NCc4ccco4)c3N2)c1 (stereo not given)	-1.1%	3%	2.7	-8%	3%	-1	-10
CCOc1ccccc1N1CCN(C(=O)c2cc3ccccc3cc2OC)CC1	-0.8%	8%	x	x	11%	-5	-1
CC(C)[C@H]1COCCS(=O)(=O)N1Cc1ccccc1-c1ccccc1	1.3%	-11%	x	x	x	-4	x
O=C(Nc1cccnc1)c1cc2c(s1)-c1ccccc1OC2	3.6%	-12%	-0.7	2%	17%	-11	-1
C[C@H](CO)N1C[C@H](C)[C@@H](CN(C)Cc2ccc(C(F)(F)F)cc2)OCc2cnnn2CCCC1=O	-0.6%	x	x	x	0%	-5	x
CCCCC(=O)Nc1cc([N+](=O)[O-])ccc1F	0.2%	9%	-3.7	12%	4%	-9	16
CC(=O)NC(Cc1ccc(F)c(F)c1)C(=O)NC1CCN(c2c(Cc3ccccc3)c(C)nc3ncnn23)CC1 (stereo not given)	x	-10%	0.2	4%	16%	9	4
NC(=O)c1ncn([C@@H]2O[C@H](CNCc3ccccc3OCc3ccc(Cl)cc3Cl)[C@@H](O)[C@H]2O)n1	2.7%	6%	x	x	x	-6	x
O=C(COC(=O)C12CC3CC(CC(Br)(C3)C1)C2)Nc1cccc(S(=O)(=O)N2CCOCC2)c1	x	u	x	x	3%	-3	x
CCCNC(=O)C(=O)NCCC1=CCCCC1	0.3%	6%	4.2	11%	12%	-4	-23
c1cc(-c2sc(-c3ccncc3)c(-c3ccncc3)c2-c2ccncc2)ccn1	x	-9%	1.9	-2%	-14%[15.4 µM]	5	-8
Cc1ccc(N2C(=O)CSC23C(=O)Nc2ccccc23)cc1 (stereo not given)	0.7%	6%	3.9	5%	-41%[inhibitor]	-16	-7
CC(C(N)=O)N1C(=O)C2C3C=CC(C3)C2C1=O (stereo not given)	1.4%	0%	-0.3	-4%	-4%	-11	0
CC(C)CNS(=O)(=O)c1ccc(CCC(=O)NCc2ccc(Cl)cc2)cc1	x	-14%	1.3	9%	-39%	1	-7
CCOC(=O)c1sc2nc(C)cc(C)c2c1NC(=O)c1ccco1	-2.8%	-3%	0.6	5%	20%	-10	7
Cc1cc(S(=O)(=O)NCCN2CCOCC2)ccc1Cl	x	20%	-5.2	18%	25%[15.4 µM]	-13	0
CC(NC(=O)COC(=O)CN1C(=O)C2CCCCC2C1=O)c1ccccc1 (stereo not given)	-22%	-5%	x	x	-25%	-8	x
Cc1cnc(C(=O)Nc2nccs2)cn1	1.0%	8%	3.8	-88%	u	-17	27
CC(C)(C)C1CCc2c(sc(NC(=O)CSc3ncn[nH]3)c2C#N)C1 (stereo not given)	0.1%	-15%	26	u	18%	6	-9
Oc1c(C(c2ccccn2)N2CCOCC2)ccc2cccnc12 (stereo not given)	0.8%	30%	-1.8	35µM*	-29%	-2	-2
O=C(C1=C(O)C(=O)N(CCOCCO)C1c1ccccn1)c1cccs1 (stereo not given)	x	7%	-0.1	6%	29%	-4	-7
C=CCN1CCN(C(c2ccc(OC)c(OC)c2)c2nnnn2C(C)(C)C)CC1 (stereo not given)	-0.7%	15%	6.5	79µM*	-25%	5	0
NC(=O)c1cccc(C(N)=O)n1	0.5%	13%	-4.5	14%	-20%	-11	-5
CC(C)NC(=O)N(C)C[C@H]1OCc2cnnn2CCCC(=O)N([C@@H](C)CO)C[C@H]1C	-0.6%	x	x	x	15%	-5	x
CCCCCOc1ccc(C2C(C(=O)c3ccc(C)o3)=C(O)C(=O)N2c2cc(C)on2)cc1 (stereo not given)	2.4%	7%	0.1	8%	u	5	u
COc1ccc(NC(=O)c2cccs2)cc1O	-0.7%	-21%	0.5	-2%	3%	6	5
O=C(c1ccc2ccccc2c1)C1CCCN(C(=O)CCn2cnnn2)C1 (stereo not given)	-14%	2%	1.3	5%	11%	-5	-3
COC(=O)c1ccc(NC(=O)CS(=O)(=O)Cc2ccccc2)cc1	0.4%	14%	2.2	8%	4%	-2	1
CCC(=O)N1CCN(c2ccc(NC(=O)c3ccc4c(c3)OCCO4)cc2)CC1	-14%	2%	1.2	13%	-22%	-7	0
CCCCc1ccc(NC(=O)Nc2c(C)n(C)n(-c3ccccc3)c2=O)cc1	-0.7%	1%	0.2	9%	8%	1	-3
O=c1c2ccccc2nc(-c2ccccc2)n1CCCN1CCOCC1	1.0%	7%	1.7	9%	16%	-4	-3
COc1cc([N+](=O)[O-])c(C(=O)N2CCOCC2)c([N+](=O)[O-])c1	-16%	5%	1.7	9%	2%	27	7
Cc1ccc(Nc2nc(COC(=O)C3CC3)cs2)cc1	-0.4%	2%	6.6	-29%	3%[15.4 µM]	-5	-2
Cn1c(=O)[nH]c2ncn(C)c2c1=O	0.7%	-2%	-1.3&-0.1	14%&12%	x	-3	x
CC1=CC(C)(C)NC(=S)N1CCO	x	3%	x	x	2%	-6	x
COC(=O)CSc1nc(Cc2ccccc2)nc2ccccc12	-1.8%	11%	-1.5	12%	u	-11	4
O=C(CCCC(=O)OCC(F)(F)C(F)F)Nc1ccccc1F	x	x	-0.5	15%	-11%[15.4 µM]	-8	-19
Cc1nc(NC(=O)CSc2nnc(-c3ccc4c(c3)OCO4)o2)c(Cl)cc1Cl	-2.5%	2%	1.0	3%	-39%[inhibitor]	-23	4
Oc1ccccc1C(=S)N1CCCCC1	1.7%	6%	2.3	-28%	8%	-48	-6
CN1c2ccccc2N(C)C1c1ccc2c(c1)OCO2	-5.9%	6%	0.0	7%	-8%	-10	5
COc1ccccc1CNC(=O)COC(=O)Cc1c(F)cccc1Cl	x	3%	-1.7	14%	9%[15.4 µM]	-3	-2
C=CCn1c(SCC(=O)NCC2CCCO2)nc2scc(-c3ccco3)c2c1=O (stereo not given)	-3.6%	-3%	u	-97%	5%	-8	-18
CC(NC(=O)c1cc(S(=O)(=O)N2CCCC2)cn1C)c1ccccc1 (stereo not given)	-2.7%	8%	-0.7	5%	-70%[inhibitor]	-4	14
CCN(CC)S(=O)(=O)c1ccc(-c2nnc(SCC(=O)Nc3ccc(OC)cc3)o2)cc1	2.6%	5%	4.3	19%	u	-2	-9
Cc1cc(NNC(=O)c2cccc(C(F)(F)F)c2)nc2c1c(C)nn2C	-7.8%	-8%	5.8	-3%	-13%	-25	1
O=C(CSCCSCC(=O)c1ccco1)c1ccco1	x	x	3.6	45µM*	x	x	-3

(continued)
SMILES	ClpP mod	gsp antag	Menin-MLL FL inh	Sfp inh	gsp agonist	D2 potentiator	TRPV1 PAM
CCCC(=O)Nc1ccccc1NC(=O)c1ccc(OCC)cc1	-1.2%	27%	0.7	24%	0%	-7	-12
Cc1ccc(NC(=O)C2(c3ccc([N+](=O)[O-])cc3)CCCC2)cc1	1.1%	u	3.5	14%	-67%[inhibitor]	-7	-4
C=CCn1c(SCC(=O)NCc2ccccc2)nnc1-c1ccccc1O	-1.7%	3%	u	2%	7%	-31	-2
Cc1ccc(C)c(NC(=S)NCCN2CCOCC2)c1	0.8%	-8%	x	x	-5%	-4	x
COc1ccccc1CN1C[C@@H]2C[C@@H](c3ccccc3C)N3CCC[C@@]23C1=O	-0.7%	-5%	0.2	15%	-58%[inhibitor]	-10	-2
C=CCCC1CN(CCCC)S(=O)(=O)c2c(F)cccc2O1 (stereo not given)	1.5%	-7%	x	x	x	-9	x
CCOc1ccccc1NC(=O)c1c(NC(=O)CCC(=O)O)sc2c1CCCCC2	x	-30%	13	13µM*	-20%	0	7
CC(=O)NC1=NC(=O)/C(=C/c2cn(C(C)=O)nc2-c2ccccc2)S1	1.0%	45%[activator]	u	28µM*	14%	-5	-4
O=c1cc(NCCO)c2ccccc2o1	0.7%	-9%	2.9	-2%	0%	1	x

Three entries already listed, ordered by heavy-atom count, rising.
SMILES	ClpP mod	gsp antag	Menin-MLL FL inh	Sfp inh	gsp agonist	D2 potentiator	TRPV1 PAM
O=c1cc(NCCO)c2ccccc2o1	0.7%	-9%	2.9	-2%	0%	1	x
Cc1ccc(C)c(NC(=S)NCCN2CCOCC2)c1	0.8%	-8%	x	x	-5%	-4	x
Cc1ccc(NC(=O)C2(c3ccc([N+](=O)[O-])cc3)CCCC2)cc1	1.1%	u	3.5	14%	-67%[inhibitor]	-7	-4

Compound activity (PubChem)
